gsp antagonist: gsp mutant antagonism; gsp-mutant cells, cAMP HTRF, 30 min; control for the full effect not named in the record; hit rate 0.4% among 340,000; AID 624288; Potency, µM (titrated, usually from 76.9 µM), inactives show top-dose activity change, negative = inhibition, most hits filed as inhibitors; active = falling curve of any shape with a large fitted effect; inconclusive = falling curve, mostly with a smaller effect; inactive = flat or rising curve; cell line not stated here;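 also: intracellular cAMP measured with PDE inhibitor Ro 20-1724 present during compound exposure; potency is read from the fitted curve at half-maximal effect; % is scaled to controls: 0 for no effect and ±100 for the full control effect; nearly all actives have a fitted effect of over 65% in size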
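Measurement of cellular cAMP by homogeneous time-resolved fluorescence following a 30 min compound exposure at 37C. The PDE inhibitor […] was present throughout; the assay buffer was DPBS with 0.05% BSA and 0.005% Tween 20.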
gsp agonist: activates gsp, the McCune-Albright syndrome mutation; gsp mutant cells, cAMP HTRF, 30 min; control for the full effect not named in the record; Potency, µM (series often up to 76.9 µM), inactives show at the highest dose activation (cAMP increase), most hits filed as activators; hit rate 0.13% among 340,000; active = well fitted activation curve with a large enough effect; inconclusive = small, poorly fitted or top-dose-only effect, or another doubt; inactive = no such curve, though single readings can be large or run the other way; cell line not stated here;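 also: phosphodiesterase inhibitor Ro 20-1724 added with compounds to block cAMP breakdown; potency is read from the fitted curve at half-maximal effect; nearly all actives have a fitted effect of over 60% in size; about a fifth of the inactives were tested at one dose only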
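Cells in DMEM/10% FBS with G418 were pretreated with compounds in DMSO plus […] (300 uM stock) for 30 min at 37C. cAMP was measured by HTRF (cAMP-d2 plus anti-cAMP antibody-K) after 30 min at room temperature.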
ClpP mod: qHTS Assay for Activators of ClpP | hit rate 1.9% among 340,000 | ATP-dependent Clp protease proteolytic subunit (Bacillus subtilis (strain 168)), P80244 | AID 651965, 2013 | Potency, µM (doses to about 57.5 µM), for the others: at the top dose activity change, negative = active | purified B. subtilis ClpP, FRET peptide cleavage, 20 min; active = well fitted falling curve with a large enough effect; inconclusive = small, poorly fitted or top-dose-only effect; inactive = no such curve, though single readings can be large or run the other way; also: potency is read from the fitted curve at half-maximal effect; the source files actives as falling curves though it sought activators and does not explain the sign; nearly all actives have a fitted effect of over 65% in size; many hits overshoot -100%
Target sequence (P80244 whole entry, looked up): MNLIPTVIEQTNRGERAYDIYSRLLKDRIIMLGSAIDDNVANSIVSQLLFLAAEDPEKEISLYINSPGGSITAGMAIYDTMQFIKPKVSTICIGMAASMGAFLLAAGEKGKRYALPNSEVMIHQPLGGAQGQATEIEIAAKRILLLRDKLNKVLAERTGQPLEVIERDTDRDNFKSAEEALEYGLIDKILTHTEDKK
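Buffer: 100 mM Tris/HCl pH8, 100 mM KCl, 0.05% low protease BSA, 2.5% glycerol, 0.01% Tween-20. ClpP 10 microg/mL final; 20 min RT; delta FRET normalized to ADEP and DMSO controls.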
TRPML1 inh: human mucolipin-1 channel inhibition; hit rate 0.02% among 390,000; AID 624415; TRPML1-inducible cells, Ca2+ dye fluorescence, FDSS; stronger effect = lower value; inhibition of EC80 agonist-evoked calcium signal; Q9GZU1; activity change, negative = inhibition, % (no concentration beside the values); in the data active means activity change below about -50%; inconclusive means about -30% to -50%; inactive means above about -30%;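 also: stimulus is agonist 54-4 at its EC80 concentration; % is scaled to controls: 0 for no effect and ±100 for the full control effect; compound concentration not given in the record; the text of the record puts the active cut at -80%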
Target sequence (Q9GZU1 whole entry, looked up): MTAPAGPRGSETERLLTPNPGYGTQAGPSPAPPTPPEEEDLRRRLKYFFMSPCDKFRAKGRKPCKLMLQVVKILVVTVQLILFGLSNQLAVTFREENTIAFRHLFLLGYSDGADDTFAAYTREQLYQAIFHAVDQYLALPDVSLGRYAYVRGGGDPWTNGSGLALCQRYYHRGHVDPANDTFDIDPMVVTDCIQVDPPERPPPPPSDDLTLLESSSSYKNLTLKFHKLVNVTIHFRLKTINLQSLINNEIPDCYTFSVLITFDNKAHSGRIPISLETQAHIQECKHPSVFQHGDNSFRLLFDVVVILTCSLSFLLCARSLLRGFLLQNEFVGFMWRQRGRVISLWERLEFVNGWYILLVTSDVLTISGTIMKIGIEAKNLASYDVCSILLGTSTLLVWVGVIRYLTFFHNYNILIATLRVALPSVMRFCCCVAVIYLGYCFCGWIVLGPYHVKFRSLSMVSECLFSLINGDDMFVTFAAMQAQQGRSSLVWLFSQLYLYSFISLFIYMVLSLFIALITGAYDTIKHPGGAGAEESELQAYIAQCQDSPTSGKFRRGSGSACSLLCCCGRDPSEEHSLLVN
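Tet-induced TRPML1-DL cells loaded with Ca8 no-wash calcium dye were read kinetically on FDSS. Compound addition was followed by EC80 agonist 54-4 (4 uM final); inhibition was read over 110 s.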
Menin MLL FP FL: menin-MLL binding inhibition, fluorescein peptide. 290,000 tested, under 10 active. Fluorescence polarization, fluorescein-MLL peptide displacement from menin. FP activity change, % at 61.4 µM; inconclusive = falling polarisation curve, or a change in total fluorescence; inactive = total fluorescence flat and polarisation flat or rising; no compound was filed as active; the % refers to the polarisation; negative = inhibition;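 also: % of control where 0% means no effect; inhibitors lower the polarisation; unlabelled MLL peptide was the positive control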
TRPML1 agonist: human mucolipin-1 channel agonism; Q9GZU1; TRPML1-expressing cells, Ca2+ dye fluorescence, FDSS; host cell line not named in the record; reference of the full effect not given here; activation, % (test concentration not listed); hit rate 0.12% among 410,000; AID 624414; in the data active = activation above about 50%; inconclusive = about 30% to 50%; inactive = below about 30%; also: 0% is about no effect; the text of the record puts the active cut at 80%
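Kinetic FDSS Ca2+ read in Tet-induced TRPML1-DL cells (ABD Ca8 dye plus quencher, 45-90 min RT loading): baseline, then compound, then 110 s agonist window; EC80 agonist 54-4 at 4uM final added afterwards for a 110 s antagonist window.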
Starred values were filed as active, the others as inactive; ? = inconclusive; nt = not tested or not shown; [ ] = dose if it differs, or a comment.

compound | gsp antagonist | gsp agonist | ClpP mod | TRPML1 inh | Menin MLL FP FL | TRPML1 agonist
FC(F)Oc1ccc(NC(=S)N2CCN(Cc3ccccc3)CC2)cc1 | 0% | -3%[15.4 µM] | 8.9µM* | 36 | 1.0 | 0.7
CCc1cc2c(=O)n3c(nc2s1)-c1[nH]c2ccc(OC)cc2c1CC3 | -7% | 10% | -6.4% | 9 | 1.1 | 1.2
COc1ccccc1N(CC(O)CN(c1ccccc1)S(C)(=O)=O)S(=O)(=O)c1ccccc1 (stereo unspecified) | 3% | 3% | -2.0% | 5 | -0.1 | -0.8
Cc1ccc(C2=NN(C(=O)CNCCO)C(c3cccs3)C2)cc1 (stereo unspecified) | -2% | 0% | -3.2% | -8 | nt | 3.5
Cc1nn(C)c2c1c(C(F)(F)F)cc(=O)n2C(C)C(=O)N1CCN(c2ccccc2)CC1 (stereo unspecified) | nt | nt | 1.0% | 13 | nt | 0.7
COc1ccc(C(=O)NC(=S)Nc2ccccc2N2CCCCC2)cc1[N+](=O)[O-] | -3% | 4% | 0.3% | 9 | 7.4 | 1.9
CCC(C)n1c(SCC(=O)NCc2ccco2)nnc1-c1cccc(S(=O)(=O)N2CCOCC2)c1 (stereo unspecified) | 1% | -26% | 0.6% | -11 | 1.3 | 1.1
COc1ccc(NC(=O)c2ccc3c(c2)c(C)c(C)n3Cc2ccc(F)cc2)cc1 | nt | nt | ? | 12 | nt | 0.4
O=C1CCc2cc(S(=O)(=O)NCCC(=O)NC3CCCCC3)ccc2N1 | 14% | -24% | -0.6% | -9 | 2.2 | -0.6
COc1ccc(OC)c(NC(=O)c2nnn(CCc3ccccc3)c2N)c1 | 8% | -1% | 4.9% | -2 | -2.9 | 0.1
O=[N+]([O-])c1ccc(NCc2ccccc2)nc1 | 12% | -30%[inhibitor] | -1.1% | -7 | 1.4 | 0.2
C[C@H]1CN([C@@H](C)CO)S(=O)(=O)c2ccc(Br)cc2O[C@H]1CN(C)Cc1ccccc1 | nt | -67%[inhibitor] | 0.6% | 47 | nt | -0.5
Cc1cc(N2CCN(C(=O)Nc3ccccc3C#N)CC2)c2ccccc2n1 | -9% | -15% | -22% | -12 | 1.2 | -0.4
Cn1c(SCC(=O)NC2CCCCC2)nnc1-c1cc2cc(Cl)ccc2o1 | -18% | 27% | -3.2% | 25 | -3.2 | -0.1
COc1ccc(NC(=O)N(C)C[C@H]2Oc3ccc(NS(=O)(=O)c4ccc(OC)cc4)cc3C(=O)N([C@H](C)CO)C[C@@H]2C)cc1 | -5% | nt | -2.4% | -8 | nt | 0.4
COc1cc(/C=N/NC(=O)c2cc(-c3c(C)nn(-c4ccccc4)c3C)n[nH]2)ccc1O | ? | -1% | -8.5% | 16 | 4.2 | 0.8
CCCN(CCO)Cc1cccc(Oc2ccccc2)c1 | 15% | -2% | -1.0% | -5 | -1.8 | -0.7
COc1ccc(Cl)cc1Nc1nc(NCCO)nc(N2CCCC2)n1 | -5% | 0% | -14% | -4 | 0.4 | -1.2
O=C(Nc1cccc2ccccc12)OC1C=CS(=O)(=O)C1 (stereo unspecified) | 1% | 0% | -0.3% | 7 | -1.6 | -0.2
NC(=O)c1ccc[n+]([C@H]2O[C@@H](COP(=O)([O-])OP(=O)(O)OC[C@H]3O[C@@H](n4cnc5c(N)ncnc54)[C@H](O)[C@@H]3O)[C@H](O)[C@@H]2O)c1 | 5% | nt | 1.4% | -2 | nt | 2.5

An excerpt from above, limited to Menin MLL FP FL, TRPML1 agonist and gsp agonist:
mol | Menin MLL FP FL | TRPML1 agonist | gsp agonist
COc1ccc(OC)c(NC(=O)c2nnn(CCc3ccccc3)c2N)c1 | -2.9 | 0.1 | -1%
CCC(C)n1c(SCC(=O)NCc2ccco2)nnc1-c1cccc(S(=O)(=O)N2CCOCC2)c1 (stereo unspecified) | 1.3 | 1.1 | -26%
Cc1ccc(C2=NN(C(=O)CNCCO)C(c3cccs3)C2)cc1 (stereo unspecified) | nt | 3.5 | 0%
CCCN(CCO)Cc1cccc(Oc2ccccc2)c1 | -1.8 | -0.7 | -2%

Remaining list, next part.
compound | gsp antagonist | gsp agonist | ClpP mod | TRPML1 inh | Menin MLL FP FL | TRPML1 agonist
COc1ccc(Oc2nc3ccccc3nc2C(F)(F)F)cc1 | 9% | -2% | 1.3% | 5 | 4.0 | -0.1
COc1cc(NC(=O)c2ccnn2C)c(OC)cc1Cl | 6% | -35%[inhibitor] | -0.7% | -5 | -1.3 | 0.3
CCOC(=O)N/N=C/c1ccc(F)cc1F | 16% | -6% | 0.9% | 2 | 7.9 | 0.3
CC(NC(=O)CC(c1ccccc1)c1cc(Cl)ccc1O)c1ccccc1 (stereo unspecified) | -13% | -4%[15.4 µM] | -1.1% | 14 | nt | 1.8
CC(C)CC(NC(=O)C1CCC(C)CC1)C(=O)NCc1ccccn1 (stereo unspecified) | 3% | 25% | 1.7% | -9 | -0.2 | -0.9
COC(=O)CN1C(=O)[C@H]2[C@@H](C3CC3)N3C(=O)CN(Cc4ccc(-c5ccccc5)cc4)C(=O)[C@@]3(Cc3ccccc3)[C@H]2C1=O | -5% | nt | 1.3% | 24 | -4.2 | -0.2
COc1ccc(-c2cn(Cc3ccc(C(N)=O)cc3)c(-c3ccncc3)n2)cc1 | -7% | nt | -16% | -1 | nt | -0.5
COc1ccc(CNC(=O)[C@@H](C)NC(=O)[C@@H]2Cc3ccccc3CN2)cc1 | -1% | nt | -0.1% | nt | -1.0 | nt
CCOC(=O)c1ccc(N=Cc2cnc(N)nc2N)cc1 | 7% | 3% | -1.3% | -14 | nt | 0.1
O=C(COC(=O)c1ccc(Cl)c(S(=O)(=O)N2CCCC2)c1)NCc1cccs1 | -3% | -2% | nt | -6 | -2.4 | -0.2
CCOC(=O)c1c(C)c(C(=O)NCCCOC(C)C)c(C)n1C | -8% | -32%[inhibitor] | 0.6% | 7 | 3.9 | -0.2
S=c1[nH]nc(C2(c3ccccc3)CCCC2)o1 | -17% | 2% | 0.0% | nt | ? | nt
COC(=O)C1=C(C)NC(=O)NC1C1CC=CCC1 (stereo unspecified) | 7% | -9% | 0.6% | 36 | -1.9 | 0.7
CCN(CC)CCNS(=O)(=O)c1ccc(/C=C/C(=O)O)cc1 | 5% | 15% | nt | 21 | 4.5 | 0.6
COCCn1c(-c2ccc(Br)cc2)nc2oc3cc(OC)ccc3c(=O)c2c1=O | -21% | 29% | -1.2% | -7 | 4.7 | 0.4
CCCCNS(=O)(=O)c1ccc(Br)cc1N1CCC[C@H]1CO | -6% | nt | 1.0% | 16 | nt | -1.0
Cc1ccc(NC(=O)CSCC(=O)Nc2ccccc2N2CCCCC2)cc1 | ? | -54%[inhibitor] | -4.2% | -12 | nt | 2.3
Nc1c(C(=O)c2cccs2)oc2ccccc12 | -16% | -6% | 0.0% | -8 | 0.8 | 0.4
CCN(CC)CCCN=C(N)N | 12% | 26% | -0.4% | 6 | -3.9 | -0.1
Cc1nc(Cc2nnc(SCC(=O)N(C)c3ccccc3)o2)cs1 | 0% | -1%[15.4 µM] | -3.0% | 17 | nt | 0.2

(next part)
compound | gsp antagonist | gsp agonist | ClpP mod | TRPML1 inh | Menin MLL FP FL | TRPML1 agonist
CCCC(=O)OCc1cnc(C)c2oc(=O)c(C(=O)Nc3ccccc3)cc12 | nt | nt | 0.7% | 14 | nt | 1.9
O=C(COc1ccccc1)Nc1ccncc1Cl | 6% | 6% | -1.6% | 17 | nt | 0.9
COc1ccc(NC(=O)CSc2nc(N)c(-c3ccccc3)c(=O)[nH]2)cc1 | 3% | -50%[inhibitor] | 1.1% | 19 | 5.5 | 0.1
Cc1cc(C)n2c(SCC(=O)N(C)C3CCS(=O)(=O)C3)nnc2n1 (stereo unspecified) | 8% | 28% | -9.1% | 1 | 0.7 | 0.9
N#C/C(=C\c1ccc(OCc2ccc(C(=O)O)cc2)cc1)C(=O)N1CCOCC1 | -8% | -13% | -0.2% | -1 | 4.6 | 0.3
COc1ccccc1NC(=S)N(c1ccccc1)C(C)C | 8% | ? | nt | 9 | -2.2 | 3.2
CCC(C)NC(=O)Cn1c(=O)n(CCCCCC(=O)NCc2ccccc2Cl)c(=O)c2sccc21 (stereo unspecified) | nt | nt | -2.5% | 13 | nt | 1.7
CC[C@]12c3[nH]c4ccc(Cl)cc4c3CCN1C(=O)[C@@H](CC(=O)NCCCOC)C[C@@H]2C(=O)N1CCN(C(=O)C2CC2)CC1 | 0% | nt | 1.0% | -7 | nt | -1.0
CCCC(c1c(C)n(C)n(-c2ccccc2)c1=O)c1c(C)n(C)n(-c2ccccc2)c1=O | -4% | 37% | -1.3% | 6 | 2.3 | -1.4
CC(=O)N1c2ccc(S(=O)(=O)NCC3CCC(C(=O)Nc4cc(C)ccn4)CC3)cc2CC1C (stereo unspecified) | -17% | -6% | -0.1% | -2 | -1.0 | -1.0
Nc1cc(-c2ccc(Cl)cc2)nn1S(=O)(=O)c1ccc(Cl)cc1 | 2% | -14% | -2.9% | 0 | -0.7 | 0.9
COc1ccc(OC)c(CCNC(=O)CCc2nnc3ccc(N4CCCCC4)nn23)c1 | -12% | ? | 0.1% | -5 | nt | 0.0
Cc1cc(CNC(=O)C2CCC(=O)N(CCc3cccc(F)c3)C2)on1 (stereo unspecified) | 14% | -2% | 2.1% | 8 | nt | -0.7
COc1ccc2cc3c(nc2c1)OCC3 | -11% | 30% | 3.9% | nt | 0.7 | nt
CC(OC(=O)c1cccc(O)c1)C(=O)N(C)Cc1ccccc1 (stereo unspecified) | 9% | 4%[15.4 µM] | -4.1% | -10 | nt | 1.2
O=C(COC(=O)[C@H](Cc1ccccc1)NC(=O)c1ccco1)NC(c1ccccc1)c1ccccc1 | -39% | -4% | 0.7% | -2 | -6.3 | 2.1
CN(c1ccccc1)S(=O)(=O)c1cccc(NC(=O)CSc2ncn[nH]2)c1 | -17% | 0% | ? | -5 | 0.0 | 1.0
CCN(CC(=O)NC1CCS(=O)(=O)C1)c1ccc([N+](=O)[O-])cc1C#N (stereo unspecified) | 10% | -22% | -4.1% | -5 | nt | 0.5
CC(C)C(=O)Nc1cccc(NC(=O)c2cccc(F)c2)c1 | 6% | -3% | 0.5% | 7 | 4.7 | 0.7
CCc1ccccc1NC(=O)C1CCCN(c2ncnc3onc(C)c23)C1 (stereo unspecified) | nt | nt | -3.5% | -18 | nt | -0.2

Outcome played no part in choosing rows; overall some 2.1% were active at least once.
